# FGF22 binding – binders of human FGF22 protein, primary screen, FGF22 synaptogenesis inhibitor project, biophysical, thermal shift, single point | calls only at 9.99 µM | Fibroblast growth factor 22 (Homo sapiens), Q9HCT0 | AID 651658, 2012 | recombinant FGF22 thermal shift, SYPRO orange fluorescence; percent of sucrose octasulfate shift, DMSO zero | 340,000 tested, 1.5% active;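 active = melting point raised past a set limit in the mean and every replicate; three in four hits are not shown here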
# Target sequence (Q9HCT0 whole entry, looked up): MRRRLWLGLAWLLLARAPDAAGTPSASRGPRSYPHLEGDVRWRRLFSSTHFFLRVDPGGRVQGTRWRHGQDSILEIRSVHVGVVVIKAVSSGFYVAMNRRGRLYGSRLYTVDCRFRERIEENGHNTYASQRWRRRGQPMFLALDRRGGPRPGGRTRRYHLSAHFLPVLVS
# MLL AF4-AF9 inh – inhibitors of AF4 peptide binding to AF9, primary screen, biochemical, AlphaScreen, biotin-AF4 peptide, FLAG-AF9, single point; 350,000 tested, 0.47% active; AID 651704, 2012; Protein AF-9 (Homo sapiens), P42568; inhibition, % at 10 µM;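 active = every replicate reaching a set inhibition limit, whatever the replicate mean, cut at about 25% in these data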;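 note: 0% = plate neutral control median and 100% = total signal loss; the record names both 10 and 1 µM as test concentration; the first replicate is given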
# Target sequence (P42568 whole entry, looked up): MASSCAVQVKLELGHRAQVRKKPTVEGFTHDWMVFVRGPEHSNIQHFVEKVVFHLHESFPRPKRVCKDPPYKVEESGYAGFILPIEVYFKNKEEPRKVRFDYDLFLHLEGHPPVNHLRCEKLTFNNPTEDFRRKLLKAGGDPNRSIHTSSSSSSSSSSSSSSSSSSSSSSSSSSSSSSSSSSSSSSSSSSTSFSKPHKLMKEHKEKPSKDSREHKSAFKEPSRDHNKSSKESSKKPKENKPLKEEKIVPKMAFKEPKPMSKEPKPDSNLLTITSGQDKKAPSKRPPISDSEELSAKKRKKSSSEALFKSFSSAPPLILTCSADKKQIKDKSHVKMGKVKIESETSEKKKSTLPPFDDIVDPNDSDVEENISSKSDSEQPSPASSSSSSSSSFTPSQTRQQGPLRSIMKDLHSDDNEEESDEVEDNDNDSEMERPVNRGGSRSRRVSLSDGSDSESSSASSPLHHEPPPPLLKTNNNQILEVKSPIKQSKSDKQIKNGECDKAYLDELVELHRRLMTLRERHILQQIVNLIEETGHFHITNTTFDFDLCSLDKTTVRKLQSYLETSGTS
# * hit, by the source's call; i = inactive; + = active, no number. The list is partial, so the mix of outcomes need not match the whole.
# Order of values: FGF22 binding | MLL AF4-AF9 inh
O=C(N[C@@H]1CC[C@H](CCn2cc(C3CC3)nn2)O[C@H]1CO)c1cccnc1
  i | -0.2
Cc1ccc(S(=O)(=O)N(C)C[C@@H]2OCCCC[C@@H](C)Oc3ccc(NC(=O)c4ccccc4)cc3C(=O)N([C@H](C)CO)C[C@@H]2C)cc1
  i | -1.8
CCCNC(=O)N(C)C[C@H]1Oc2cc(-c3ccncc3)ccc2S(=O)(=O)N([C@H](C)CO)C[C@@H]1C
  i | -1.4
COc1ccc2c3c([nH]c2c1)[C@@H](CO)N(C(=O)C1CCCC1)CC31CCN(C(=O)c2ccncc2)CC1
  i | -1.8
O=C(C[C@@H]1C=C[C@H](NC(=O)Nc2ccc3c(c2)OCO3)[C@H](CO)O1)NCc1ccccc1
  i | 1.1
O=C(NCC[C@H]1CC[C@@H](NC(=O)C2CC2)[C@@H](CO)O1)c1cc(Cl)cc(Cl)c1
  i | -2.8
CCCNC(=O)Nc1ccc2c(c1)OC[C@@H](C)N(C(C)=O)C[C@@H](C)[C@@H](OC)CN(C)C2=O
  i | -1.0
C[C@@H]1CN([C@H](C)CO)C(=O)c2cc(NS(=O)(=O)c3cccs3)ccc2O[C@@H](C)CCCCO[C@H]1CN(C)Cc1ccc(C(=O)O)cc1
  i | -2.1
C[C@H](CO)N1C[C@H](C)[C@H](CN(C)C(=O)C2CC2)Oc2ncc(C#Cc3cccc(F)c3)cc2C1=O
  i | 2.1
C[C@@H]1CCCCO[C@@H](CN(C)S(C)(=O)=O)[C@H](C)CN([C@@H](C)CO)C(=O)c2cc(NC(=O)CCC(F)(F)F)ccc2O1
  i | -5.2
C[C@@H]1CN([C@H](C)CO)C(=O)c2ccccc2-c2ccccc2CO[C@@H]1CN(C)C(=O)Cc1ccccc1
  i | -15.1
C[C@@H](O)C#Cc1ccc([C@H]2[C@@H](CO)N3CCCCN(C(=O)c4ccc5c(c4)OCO5)C[C@H]23)cc1
  i | 1.0
C[C@@H]1CN([C@@H](C)CO)C(=O)c2cccc(NC(=O)Nc3ccccc3)c2O[C@H]1CN(C)C(=O)NC1CCCCC1
  i | -8.5
COCC#Cc1cnc2c(c1)C(=O)N([C@@H](C)CO)C[C@@H](C)[C@H](CN(C)C(=O)Nc1ccccc1F)O2
  i | 0.8
C[C@H]1CN([C@@H](C)CO)C(=O)Cc2cc(NC(=O)Nc3cccc4ccccc34)ccc2O[C@H]1CN(C)Cc1ccc(-c2ccccc2)cc1
  i | -29.2
CN(C)CC(=O)N[C@H]1CC[C@@H](CCNC(=O)C2CCCCC2)O[C@H]1CO
  i | -0.6
COc1ccc(C#Cc2ccc([C@@H]3[C@@H](CO)N4CCCCN(C(=O)Nc5ccccc5F)C[C@@H]34)cc2)cc1
  i | -2.7
O=C(c1ccccn1)N1C[C@H]2[C@@H](c3ccccc31)[C@H](CO)N2C(=O)Nc1ccccc1F
  i | -5.4
CC(C)NC(=O)Nc1cccc2c1O[C@@H](CN(C)Cc1ccc3c(c1)OCO3)[C@H](C)CN([C@H](C)CO)C2=O
  i | 1.4
C[C@@H]1CN([C@H](C)CO)C(=O)c2cc(-c3ccc(C#N)cc3)cnc2O[C@H]1CN(C)Cc1cncnc1
  i | -5.0
COCC#Cc1ccc2c(c1)O[C@@H](CN(C)Cc1ccc(F)cc1)[C@H](C)CN([C@@H](C)CO)S2(=O)=O
  i | 2.2
C[C@@H](O)C#Cc1cnc2c(c1)C(=O)N([C@@H](C)CO)C[C@H](C)[C@@H](CN(C)Cc1ccc(-c3ccccc3)cc1)O2
  i | 6.9
CCCC#Cc1ccc2c(c1)O[C@H](CN(C)CC1CCOCC1)[C@H](C)CN([C@H](C)CO)S2(=O)=O
  i | 3.4
CCCCN1CC(COCc2ccccc2)Oc2cccc(NCc3cc(OC)c(OC)c(OC)c3)c2S1(=O)=O (stereo not given)
  i | 0.3
COc1ccc(CN(C)C[C@@H]2Oc3ccc(NS(=O)(=O)c4c(C)noc4C)cc3CC(=O)N([C@@H](C)CO)C[C@H]2C)cc1
  i | 2.7
O=C(C[C@@H]1C=C[C@@H](NS(=O)(=O)c2ccccc2)[C@H](CO)O1)NCc1ccncn1
  i | -2.6
Cc1ccc(S(=O)(=O)N[C@@H]2C=C[C@@H](CC(=O)NCCCN(C)C)O[C@@H]2CO)cc1
  i | -0.1
C[C@@H]1CCCCO[C@H](CN(C)Cc2ccc(C(=O)O)cc2)[C@@H](C)CN([C@@H](C)CO)C(=O)c2cc(NS(=O)(=O)c3cccs3)ccc2O1
  i | -0.4
O=C(C[C@H]1CC[C@H]2[C@@H](COC[C@H](O)CN2C(=O)Nc2ccc3c(c2)OCO3)O1)N1CCN(c2ccccc2)CC1
  i | 7.9
C[C@H]1CN([C@@H](C)CO)S(=O)(=O)c2ccc(C#Cc3cccc(F)c3)cc2O[C@@H]1CN(C)S(=O)(=O)c1ccccc1F
  i | -2.3
CC(C)NC(=O)Nc1ccc2c(c1)CC(=O)N([C@H](C)CO)C[C@H](C)[C@@H](CN(C)C(=O)Nc1ccc(C(F)(F)F)cc1)O2
  i | -0.9
CCOC(=O)C1CSCCS(=O)(=O)N1Cc1cccc(Cl)c1 (stereo not given)
  i | 0.8
CCS(=O)(=O)N1CCCCN2[C@H](C1)[C@@H](c1ccc(-c3cccc(C#N)c3)cc1)[C@@H]2CO
  i | -3.6
CCCNC(=O)Nc1ccc2c(c1)OC[C@H](C)N(Cc1ccc(-c3ccccn3)cc1)C[C@H](C)[C@H](OC)CN(C)C2=O
  i | 4.7
CNC(=O)C[C@H]1CC[C@H]2[C@@H](COC[C@@H](O)CN2Cc2ccccc2F)O1
  i | 3.4
C[C@H]1CN([C@@H](C)CO)S(=O)(=O)c2ccc(-c3cccc(F)c3)cc2O[C@H]1CN(C)S(=O)(=O)c1ccccc1
  i | -0.2
C[C@@H]1CCCCO[C@H](CN(C)S(=O)(=O)c2ccc(Cl)cc2)[C@@H](C)CN([C@H](C)CO)C(=O)c2cc(NC(=O)CCCN(C)C)ccc2O1
  i | 1.9
COc1ccc(NC(=O)N(C)C[C@@H]2OCCCC[C@@H](C)Oc3ccc(NC(=O)Cc4ccccc4)cc3C(=O)N([C@@H](C)CO)C[C@H]2C)cc1
  i | -4.0
CO[C@@H]1CN(C)C(=O)c2ccc(NC(=O)NC(C)C)cc2OC[C@@H](C)N(C(=O)NC(C)C)C[C@H]1C
  i | -1.3
C[C@@H]1CCCCO[C@H](CN(C)C(=O)C2CCCCC2)[C@H](C)CN([C@@H](C)CO)C(=O)c2cc(NC(=O)Cc3ccccc3)ccc2O1
  i | 2.8
C=CCNc1cccc2c1S(=O)(=O)N[C@@H](C)CO2
  i | 0.0
CN1CCN(C(=O)C[C@H]2C[C@H]3c4cc(NC(=O)CC5CC5)ccc4O[C@H]3[C@@H](CO)O2)CC1
  i | -17.1
C[C@@H]1CN([C@@H](C)CO)C(=O)c2cc(/C=C/c3ccccc3)cnc2O[C@H]1CN(C)C(=O)c1cccc(F)c1
  i | 9.5
C/C=C/c1cnc2c(c1)C(=O)N([C@@H](C)CO)C[C@H](C)[C@H](CN(C)C(=O)Nc1ccc(F)cc1)O2
  i | -0.9
C[C@H]1CN([C@@H](C)CO)C(=O)c2cc(NC(=O)Cc3cn(C)c4ccccc34)ccc2O[C@H]1CN(C)C(=O)Nc1cccc2ccccc12
  i | 0.5
O=C(C[C@@H]1C=C[C@@H](NC(=O)NC2CCCCC2)[C@H](CO)O1)NCc1ccc(F)cc1
  i | -6.5
COc1ccc2c3c(n(C)c2c1)[C@H](CO)N(C(=O)Cc1ccccc1)CC31CCN(C(C)=O)CC1
  i | -1.7
C[C@@H]1CN([C@H](C)CO)C(=O)c2cc(NS(=O)(=O)c3ccc(F)cc3)ccc2O[C@@H]1CN(C)Cc1ccccc1
  i | 3.3
C[C@@H]1CN([C@H](C)CO)C(=O)c2cc(NC(=O)C3CCCCC3)ccc2O[C@H]1CN(C)Cc1ccc(Cl)c(Cl)c1
  i | 0.9
Cc1noc(C)c1S(=O)(=O)Nc1ccc2c(c1)CC(=O)N([C@H](C)CO)C[C@@H](C)[C@@H](CN(C)Cc1ccc(Cl)c(Cl)c1)O2
  i | 3.0
COc1ccc(NC(=O)Nc2ccc3c(c2)CC(=O)N([C@@H](C)CO)C[C@H](C)[C@H](CN(C)C(=O)Nc2ccc(F)cc2)O3)cc1
  i | -2.4
C[C@@H]1CN([C@@H](C)CO)C(=O)Cc2cc(NC(=O)Cc3ccccc3)ccc2O[C@H]1CN(C)C(=O)Nc1ccc(C(F)(F)F)cc1
  i | -7.1
COC(=O)C[C@H]1CC[C@@H]2[C@H](COc3ccc(NS(=O)(=O)c4ccccc4Cl)cc3C(=O)N2C)O1
  i | -4.6
CO[C@@H]1CN(C)C(=O)c2cc(NC(=O)C3CCCC3)ccc2OC[C@@H](C)N(C(=O)CC2CC2)C[C@H]1C
  i | 0.2
C[C@@H]1CN([C@@H](C)CO)C(=O)c2ccccc2-c2ccccc2CO[C@H]1CN(C)C(=O)Nc1cccc(C(F)(F)F)c1
  i | 3.7
CC(C)NC(=O)N[C@@H]1C=C[C@@H](CC(=O)N2CCCCC2)O[C@H]1CO
  i | -2.0
CCNC(=O)C[C@H]1CC[C@@H]2[C@H](COC[C@@H](O)CN2C(=O)c2cc(Cl)cc(Cl)c2)O1
  i | -5.0
COc1ccc(S(=O)(=O)N(C)C[C@@H]2OCCCC[C@@H](C)Oc3ccc(NC(=O)NC4CCCCC4)cc3C(=O)N([C@@H](C)CO)C[C@H]2C)cc1
  i | 1.1
NCC[C@H]1CC[C@@H](NC(=O)C2CCCC2)[C@H](CO)O1
  i | -1.1
C[C@@H]1CN([C@H](C)CO)C(=O)c2cccc(NC(=O)NC3CCCCC3)c2O[C@@H]1CN(C)Cc1ccncc1
  i | 0.9

# Grouped by structure: those above containing two or more sulfur atoms (5)
# Order of values: FGF22 binding | MLL AF4-AF9 inh
C[C@@H]1CN([C@H](C)CO)C(=O)c2cc(NS(=O)(=O)c3cccs3)ccc2O[C@@H](C)CCCCO[C@H]1CN(C)Cc1ccc(C(=O)O)cc1
  i | -2.1
C[C@@H]1CCCCO[C@H](CN(C)Cc2ccc(C(=O)O)cc2)[C@@H](C)CN([C@@H](C)CO)C(=O)c2cc(NS(=O)(=O)c3cccs3)ccc2O1
  i | -0.4
C[C@H]1CN([C@@H](C)CO)S(=O)(=O)c2ccc(C#Cc3cccc(F)c3)cc2O[C@@H]1CN(C)S(=O)(=O)c1ccccc1F
  i | -2.3
CCOC(=O)C1CSCCS(=O)(=O)N1Cc1cccc(Cl)c1 (stereo not given)
  i | 0.8
C[C@H]1CN([C@@H](C)CO)S(=O)(=O)c2ccc(-c3cccc(F)c3)cc2O[C@H]1CN(C)S(=O)(=O)c1ccccc1
  i | -0.2

# Next structures:
# Order of values: FGF22 binding | MLL AF4-AF9 inh
COc1ccc(CN(C)C[C@H]2OCCCC[C@@H](C)Oc3ccc(NC(=O)Nc4ccc5c(c4)OCO5)cc3C(=O)N([C@@H](C)CO)C[C@H]2C)cc1
  i | 31.6*
CC(=O)N1CC(=O)N2[C@H](CO)[C@@H](c3ccc(C#CC(C)C)cc3)[C@@H]2C1
  i | 1.4
CC(=O)N1[C@H](C(=O)N[C@@H](C)c2ccccc2)[C@@H](CO)[C@@H]2Cn3c(cccc3=O)[C@@H]21
  i | -0.9
CCC(=O)N(C)C[C@@H]1Oc2cc(C#Cc3ccccn3)ccc2S(=O)(=O)N([C@@H](C)CO)C[C@H]1C
  i | -1.0
O=C(C[C@@H]1C=C[C@H](NC(=O)Nc2cc(F)ccc2F)[C@H](CO)O1)Nc1ccc(-c2ccccc2)cc1
  + | -0.2
COCC#Cc1ccc2c(c1)O[C@@H](CN(C)CC1CC1)[C@@H](C)CN([C@@H](C)CO)S2(=O)=O
  i | -0.4
COc1cccc(-c2ccc3c(c2)[C@@H]2[C@@H](CCN2S(=O)(=O)c2ccccc2OC)[C@@H](CO)N3)c1
  i | -0.3
O=C(CN1CCOCC1)NCC[C@@H]1CC[C@@H](NC(=O)Nc2ccc(C(F)(F)F)cc2)[C@@H](CO)O1
  i | -0.3
COCC#Cc1cnc2c(c1)C(=O)N([C@H](C)CO)C[C@@H](C)[C@H](CN(C)S(=O)(=O)c1ccccc1)O2
  i | -2.2
CN1C(=O)c2cc(NC(=O)C3CCCC3)ccc2OC[C@@H]2O[C@H](CC(=O)NCC3CC3)CC[C@@H]21
  i | -1.1
OC[C@@H]1[C@H](c2ccc(-c3cccc(F)c3)cc2)[C@H]2CN(Cc3cncnc3)CCCCN12
  i | 0.4
Cc1noc(C)c1NC(=O)NCC[C@@H]1CC[C@H](NC(=O)c2ccc(F)cc2)[C@@H](CO)O1
  i | -1.8
Cc1ccc(S(=O)(=O)N(C)C[C@H]2Oc3ccc(NC(=O)Nc4c(C)noc4C)cc3C(=O)N([C@H](C)CO)C[C@@H]2C)cc1
  i | -14.6
CS(=O)(=O)N1CC(=O)N2[C@H](CO)[C@H](c3ccc(C#CCC4CCCC4)cc3)[C@H]2C1
  i | 0.3
O=C(Nc1ccc(F)cc1)N[C@H]1C=C[C@@H](CC(=O)N2CCOCC2)O[C@@H]1CO
  i | 3.6
COc1cccc(NC(=O)C[C@@H]2CC[C@@H]3[C@H](COc4ccc(NC(C)=O)cc4C(=O)N3C)O2)c1
  i | -0.8
C[C@@H]1CN([C@H](C)CO)C(=O)c2cc(-c3ccncc3)cnc2O[C@H]1CN(C)Cc1cccnc1
  i | -4.9

# Source: PubChem BioAssay (Broad Institute)
